Bioassay records (PubChem BioAssay)
H5N1 CPE: antiviral screen in MDCK cells, H5N1 avian flu | cytopathic effect, luminescence, 72 h; hits give high values; no value below 0 was filed and about half of the inactive calls have no number; reference of the scale not given here | 0.07% of 96,000 active | inhibition, % at 50 µM; in the data active = inhibition above about 25%
* marks the source's active call; other numbers are inactive results; i = inactive. Only part of the results is shown, so the mix of outcomes need not match the whole.

| smiles | H5N1 CPE |
| --- | --- |
| CCOC(=O)c1ccc(NC(=O)COc2ccc(-n3cnnn3)cc2)cc1 | i |
| Cc1ccc(C2/C(=C(/O)c3ccccc3)C(=O)C(=O)N2CCN2CCOCC2)o1 (stereo unspecified) | 0.1 |
| O=C(CCCN1C(=O)c2ccccc2C1=O)Nc1ccc(Br)cn1 | 1.2 |
| CCc1cc2c(=O)n(Cc3ccco3)c(SCC(=O)N3CCCc4ccccc43)nc2s1 | 2.5 |
| CCN1CCN(C(=O)c2cc3cc4ccc(OC)cc4nc3s2)CC1 | i |
| COC(=O)c1sc2nc(-c3ccco3)ccc2c1N | i |
| O=C(Nc1ccc(Cl)cc1)C1C2CCC3C(CCC21)C3(Cl)Cl (stereo unspecified) | i |
| CCOc1ccccc1CN1C(=O)NC(C)(c2ccccc2)C1=O (stereo unspecified) | i |
| CCCCCn1c(CCC(=O)Oc2ccccc2OC)nc2c1c(=O)[nH]c(=O)n2CCCC | i |
| CS(=O)(=O)N1CCC(C(=O)NCc2ccc(F)cc2Cl)CC1 | 0.2 |
| Cc1cc(Cl)ccc1OC(C)C(=O)NCCCCc1ccccc1 (stereo unspecified) | i |
| CC(C)Oc1ccc(OCCNC2CCCC2)cc1 | i |
| CSc1ccc(S(=O)(=O)N2CCN(Cc3ccc4c(c3)OCO4)CC2)cc1 | 2.4 |
| Cc1c(-n2cc(C(=O)c3cc(Cl)ccc3O)cc(C#N)c2=O)c(=O)n(-c2ccccc2)n1C | 1.0 |
| Cc1nn(-c2ccccn2)c2nc(-c3cccs3)cc(C(=O)NCc3ccco3)c12 | i |
| CC1CC(Nc2cccc(O)c2)=CC(=O)O1 (stereo unspecified) | i |
| CCOc1ccc(S(=O)(=O)Nc2cc(OC)ccc2OC)cc1 | 1.3 |
| O=C/C(=C\Nc1ccc(Cl)cn1)c1nc2cc(Cl)ccc2o1 | i |
| O=c1[nH]c(-c2ccc(Cl)cc2)nc2c1cnn2-c1ccccc1 | 0.2 |
| CCOc1ccc(S(=O)(=O)N2CCCCCC2)cc1 | 1.3 |
| COC(=O)C1=C(C)NC(=O)/C1=C\c1cccs1 | 1.6 |
| O=C(Cn1nc(C(F)(F)F)c2c1CCC2)NC1CCCCC1 | i |
| CCOc1ccc(C2NC(=O)C(C#N)=C(S)N2c2ccc(C)cc2)cc1OC (stereo unspecified) | i |
| O=C(NCc1ccccn1)c1ccc(CS(=O)(=O)Cc2ccc(Cl)cc2)o1 | 0.2 |
| N/C(=N\OC(=O)Cc1ccc(Cl)cc1)c1ccccn1 | i |
| Cc1ccc(/C=C/C2=NN(Cc3ccccc3Cl)C(=O)CC2)cc1 | i |
| O=C(Nc1ccc2c(c1)OCCO2)c1ccc(Cl)c(S(=O)(=O)N2CCCCC2)c1 | 0.3 |
| CCOC(=O)C1CCCN(C(=O)c2ccco2)C1 (stereo unspecified) | i |
| COc1ccc(S(=O)(=O)Nc2ccc3c(c2)OCO3)cc1C(=O)O | i |
| C/C(=N\OC(=O)c1ccccc1)c1cc(-c2ccc(Cl)cc2)no1 | 0.2 |
| O=C(Nc1ccc2c(c1)CCC2)C1CCN(c2ncccn2)CC1 | i |
| Cc1c(N2C(=O)CS/C2=N\N=C\c2ccccc2O)c(=O)n(-c2ccccc2)n1C | i |
| O=S(=O)(c1cnccc1N1CCN(/N=C/c2ccc(Br)cc2)CC1)N1CCCCC1 | 2.5 |
| Cc1ccc2sc3ccc(NC(=O)c4ccccc4Cl)cc3c(=O)c2c1 | i |
| COc1ccccc1C1/C(=C(/O)c2ccccc2)C(=O)C(=O)N1CC(C)O (stereo unspecified) | i |
| Cc1cc(NC(=O)CSc2nc(CC(C)(C)C)nc3c2c(=O)n(C)c(=O)n3C)no1 | i |
| COc1ccc(/C=C/C(=O)Nc2cc(C(F)(F)F)ccc2Cl)cc1 | i |
| CCNC(=O)NC(=O)COC(=O)CCCSc1nc2ccccc2[nH]1 | i |
| CCN(CC)CCNC(=O)CS(=O)Cc1nc(-c2ccc(Cl)cc2)oc1C (stereo unspecified) | i |
| CC(C)NC(=O)c1onc(CSc2ccccc2F)c1C(=O)O | i |
| CC(C)(C)C(=O)c1cnc(Nc2ccccc2Cl)s1 | i |
| COc1ccc2ccc3c(c2c1)N=C[C@]1(O3)N(C)c2ccccc2C1(C)C | 0.7 |
| Cc1cc(=O)c(C(=O)O)cn1Nc1ccc(Cl)cc1 | i |
| Cc1ccc(S(=O)(=O)N2CC3CC(C2)c2cccc(=O)n2C3)cc1 (stereo unspecified) | 0.5 |
| COc1cccc(-c2[nH]nc3c2C(c2ccsc2)C(C#N)=C(N)O3)c1 (stereo unspecified) | i |
| COC(=O)C1=C(O)/C(=C\c2ccc(CNC(=O)C(=O)Nc3ccc(C)cc3)o2)N=C1C | i |
| O=C(Oc1ccc(Cl)c2ccccc12)N1CCCCC1 | 3.5 |
| CCc1nnc(NC(=O)CSc2nc(-c3ccccc3)cc(-c3ccc(F)cc3)c2C#N)s1 | i |
| COc1cc(CC(=O)O)c(C(C)=O)cc1OC | 0.6 |
| COc1ccc2c(c1)c1ccccc1n2C | 0.3 |
| Nc1nnc(SCc2cccnc2)s1 | 2.2 |
| O=C(NCc1nc2ccccc2[nH]1)c1ccc(Cl)c(S(=O)(=O)N2CCCC2)c1 | i |
| COCP(=O)(c1ccccc1)c1ccccc1 | i |
| O=C(NNC(=O)c1sccc1-n1cccc1)c1cccc(Cl)c1 | 0.3 |
| CCn1c(C)c(CCC(=O)O)c(=O)n2nc(-c3ccccc3OC)cc12 | 0.1 |
| N/C(=N\N=C\c1ccc(O)cc1O)N[N+](=O)[O-] | i |
| CCOC(=O)COc1ccc(-c2nnc(-c3ccccc3)o2)cc1 | i |
| CCc1ccc(NC(=O)c2sccc2-n2cccc2)cc1 | i |
| CCC(CO)NC(=O)c1ccc(-c2nn(C)c(=O)c3ccccc23)cc1 (stereo unspecified) | 0.5 |
| CC(/C=C/c1ccco1)=N/NC(=O)Cc1cccs1 | 3.5 |

Next entries.
| smiles | H5N1 CPE |
| --- | --- |
| Cc1nc2cc(C(=O)O)ccc2n1-c1ccc(F)cc1F | 0.3 |
| Cc1ccc2c(c1)C(=O)CCN2 | i |
| CCC1=[N+]([O-])C(C)(/C(C)=N\O)N(O)C1(C)C (stereo unspecified) | 1.2 |
| CCOc1cc(CNCCO)cc(Br)c1OCc1ccc(Cl)cc1Cl | i |
| O=c1oc(-c2ccc(Br)o2)nc2ccccc12 | i |
| CN(CCOc1ccc(Cl)cc1)c1ccc(S(=O)(=O)N2CCCCC2)cn1 | 1.5 |
| Cc1ccc2nc(SCC(=O)Nc3cc(C)on3)[nH]c2c1 | 0.5 |
| COC(=O)c1cn[nH]c1NC(=S)Nc1ccccc1C | i |
| COc1ncnc2c1N[C@@](C)(O)c1c(F)c(F)c(F)c(F)c1S2 | i |
| CSc1ccccc1NC(=O)c1cccs1 | i |
| COC(=O)C(CC(C)C)NC(=O)c1ccc([N+](=O)[O-])c(C)c1 (stereo unspecified) | i |
| CCOc1ccc2nc(NS(=O)(=O)Cc3ccccc3)sc2c1 | 0.2 |
| Cc1c(C(=O)O)oc2c3c(ccc12)OCCO3 | i |
| Cc1cc(C)cc(NC(=O)Cn2c(=O)oc3cc(S(=O)(=O)N4CC(C)CC(C)C4)ccc32)c1 (stereo unspecified) | 1.9 |
| Cc1ccc(C2CC(c3ccccc3Cl)n3nc(N)nc3N2)cc1 (stereo unspecified) | 3.3 |
| COc1ccccc1NC(=O)Nc1ccnn1Cc1cccs1 | 0.7 |
| Cc1oc(-c2ccc(Cl)cc2)nc1CN1CCC(C(=O)N2CCc3ccccc3C2)CC1 | i |
| CCOC(=O)C(CC)/C(C)=N/NC(=O)c1ccccc1[N+](=O)[O-] (stereo unspecified) | i |
| CCn1cc(C(=O)N2CCN(Cc3ccc4c(c3)OCO4)CC2)c2cc(OC)c(OC)cc2c1=O | 0.2 |
| CCN1CCN(C(=O)c2ccc(Cn3c(=O)[nH]c4cc(OC)c(OC)cc4c3=O)cc2)CC1 | 1.2 |
| Cc1cccn2c(=O)c3cc(C(N)=S)c(=N)n(CCCOC(C)C)c3nc12 | 4.8 |
| CC(=O)Nc1ccc(NC(=O)CSc2nccn2Cc2ccccc2)cc1 | 1.1 |
| CCc1nc(Nc2ccncc2)c2oc3ccccc3c2n1 | 5.2 |
| O=C(NCCCNCc1ccccc1)c1ccncc1 | 0.3 |
| COCCN(C(=O)Nc1ccccc1)c1ccccc1C | i |
| Cn1cccc1Cc1nnc(SCC(=O)N2CCCCCC2)n1-c1ccc(F)cc1 | 1.9 |
| Cc1cccc(N(C)c2cc(C)nc3nc(C)nn23)c1 | i |
| CCCc1cc(=O)[nH]c(SCC(=O)N(CC(C)C)C2CCS(=O)(=O)C2)n1 (stereo unspecified) | 0.1 |
| Cc1cccc(N2CCN(C(=O)Cc3ccc(Br)cc3)CC2)c1C | 3.0 |
| CC(=O)Nc1sc2c(c1C#N)CC(C)(C)NC2(C)C | 0.5 |
| CCc1ccc2[nH]c(=O)c(CN(CCN3CCOCC3)C(=O)Nc3ccccc3F)cc2c1 | i |
| CCN(CC(=O)NC(C)C)C(=O)C(CCSC)NC(=O)c1cccc(C)c1 (stereo unspecified) | 1.5 |
| O=c1[nH]c2cc3c(cc2cc1CN(CCc1ccccc1)Cc1nnnn1CC1CCCO1)OCO3 (stereo unspecified) | i |
| CCn1c(=O)c(-[n+]2ccccc2)c(O)c2ccccc21 | i |
| CC(=O)OCN(C#N)c1nc(N(C)C)nc(N(C)C)n1 | 0.0 |
| O=S(=O)(N/N=C/c1ccc2c(c1)OCCO2)c1ccc(Cl)cc1 | i |
| Cc1ccc(NS(=O)(=O)c2ccc(NS(=O)(=O)c3cccs3)cc2)cc1 | 0.0 |
| CCCS(=O)(=O)N1CCN(C(=O)COc2ccc(-c3ccccc3)cc2)CC1 | 0.2 |
| O=C(CSc1nc2ccccc2[nH]1)Nc1ccc(F)c(F)c1 | i |
| CC1(C)c2ssc(=S)c2-c2ccccc2N1C(=O)c1ccco1 | i |
| O=C(Cc1ccccc1)Nc1ccc(NC(=O)c2ccco2)nc1 | i |
| Cc1ccccc1OCC(=O)Nc1ccccc1CO | i |
| COc1cc(C(C#N)N2CCCCC2)ccc1O (stereo unspecified) | i |
| CCCCc1nnc(NC(=O)CSc2nc(=O)cc(N)n2-c2cccc(C)c2)s1 | i |
| O=C(O)c1ccc(OC(F)(F)C(F)C(F)(F)F)cc1 (stereo unspecified) | 0.1 |

Ordered by number of heavy atoms (ascending): some entries from above.
| smiles | H5N1 CPE |
| --- | --- |
| COCP(=O)(c1ccccc1)c1ccccc1 | i |
| CC(=O)Nc1sc2c(c1C#N)CC(C)(C)NC2(C)C | 0.5 |
| O=C(Oc1ccc(Cl)c2ccccc12)N1CCCCC1 | 3.5 |
| O=C(CSc1nc2ccccc2[nH]1)Nc1ccc(F)c(F)c1 | i |
| CSc1ccc(S(=O)(=O)N2CCN(Cc3ccc4c(c3)OCO4)CC2)cc1 | 2.4 |

(list continues)
| smiles | H5N1 CPE |
| --- | --- |
| COc1ccc(N2CCN(C(c3cc4cc(C)ccc4[nH]c3=O)c3nnnn3Cc3ccccc3)CC2)cc1 (stereo unspecified) | 0.7 |
| Cc1cc2cc(CN(C(=O)C3CC3)C3CCCC3)c3nnnn3c2cc1C | 1.0 |
| CCCOC(=O)c1ccc2c(c1)C(=O)N(c1ccccc1)C2=O | i |
| CCCn1nc2cc(C(=O)NCc3ccc(C)cc3)ccc2c1OCC | 0.6 |
| O=C(CSc1nnc(CNC(=O)c2ccccc2F)o1)Nc1ccc2c(c1)OCCO2 | 0.1 |
| CCCc1cc(N2CCCC(C(=O)NCC)C2)n2ncnc2n1 (stereo unspecified) | i |
| Cc1nnc(NC(=O)c2cccc(S(=O)(=O)N3CCc4ccccc43)c2)s1 | i |
| CN(NC(N)=O)c1ncc(C(F)(F)F)cc1Cl | i |
| CCn1c(SCc2ccc(C(=O)Nc3cc(C)cc(C)c3)cc2)nnc1-c1ccncc1 | i |
| COc1cccc(CNC(=O)C2CCN(S(=O)(=O)N3CCCCC3)CC2)c1 | 0.5 |
| C=CCN1C(=O)C2(C(C(=O)OCC)=C(N)Oc3ccccc32)C2=C1CCCC2=O (stereo unspecified) | i |
| CC(C)CC1(C)NC(=O)N(CCN2C(=O)c3ccccc3C2=O)C1=O (stereo unspecified) | i |
| COCCCNC(=O)c1ccc(CS(=O)(=O)c2ccc(Br)cc2)o1 | 3.7 |
| Cc1cc(NC(=O)COC(=O)C2CCN(S(=O)(=O)c3c(Cl)cccc3Cl)CC2)no1 | 0.3 |
| CC1(C)Cc2c(sc3ncn(N)c(=N)c23)CO1 | 0.5 |
| CCOC(=O)c1sc(NC(=O)CSc2nc(C)cc(C(F)(F)F)n2)c(C#N)c1C | i |
| COC(=O)c1ccc(Cn2c(CN3CCOCC3)nc3ccccc3c2=O)o1 | 0.5 |
| Cc1cccc(-n2c(SCC(=O)N3CCCC3)nnc2-c2ccccn2)c1C | 1.2 |
| c1ccc2c(N3CCCCC3)nnc(N3CCCCC3)c2c1 | i |
| COc1ccc(CC(=O)N2CCCc3ccccc32)cc1 | 0.8 |
| COc1cccc(/C=C2/SC(=O)N(CC(=O)N3CCc4ccccc4C3)C2=O)c1OCC(=O)O | i |
| CCc1ccccc1S(=O)(=O)Cc1ccc(C(=O)N2CCN(c3ccccc3OC)CC2)o1 | i |
| COc1ccc2[nH]c3nc(SC(C)C)nnc3c2c1 | 0.5 |
| O=C(NCc1ccco1)c1cc(-c2ccc(F)cc2)on1 | 0.5 |
| O=C(CSc1nc2cc(Cl)ccc2o1)NCCc1ccccc1 | 0.6 |
| COc1cc2[nH]c(=O)n(CCC(=O)NCc3cccnc3)c(=O)c2cc1OC | 0.4 |
| CC(C)OCCCNC(=O)C1CC(=O)N(C2CCCCCCC2)C1 (stereo unspecified) | 0.6 |
| CCCCNC(=O)CSc1nc2ccc(NC(=O)CSc3nnc(COc4ccccc4C)n3C)cc2s1 | i |
| O=C(NC(C(=O)c1ccccc1)N1CCOCC1)c1cccs1 (stereo unspecified) | i |
| CC(=O)c1ccc(OCC(O)CN2CCN(Cc3ccccc3)CC2)cc1 (stereo unspecified) | 1.2 |
| N#Cc1cc2c(nc1SCc1cccc(Cl)c1)CCCCC2 | 0.9 |
| O=C1C(Cl)=C(N2CCN(Cc3ccccc3)CC2)C(=O)N1Cc1ccccc1 | i |
| COc1ccc(C(=O)O)cc1S(=O)(=O)NCCCN1CCCC1=O | 1.3 |
